Screening data deposited in PubChem BioAssay by several laboratories.
CSC inhib – blocks cancer stem cells; inhibition, % at 7.5 µM; 1.1% of 300,000 active; AID 2717; cancer stem cell-like cells viability, luminescence;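 active = mean at 75% or more and at least half the replicates too; inconclusive = mean and replicates disagree; tested in HMLE shEcad cells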;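 note: 0% = median of negative and 100% = median of positive control wells; the first replicate is given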
Yeast UUG start – yeast start codon fidelity modulation. S. cerevisiae UUG-firefly luciferase reporter, luminescence/redox ratio. activity score, % at 18.7 µM. 0.13% of 350,000 active;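 active = replicate mean at a twofold rise or more, about +100% in these data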;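 note: firefly luciferase made from a UUG start codon reports start codon fidelity; reporter light over untreated wells divided by growth signal over untreated wells; some hits fall short of that in this replicate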
PABP FP inh – PABP-poly(A) binding inhibition; PABP-poly(A) RNA binding, fluorescence polarization; 1% of 290,000 active; inhibition, % at 35 µM; P11940;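 active = 50% or more with normal probe brightness, or confirmed in later tests; inconclusive = above 50% with abnormal brightness, or retests that disagree; inactive = below 50% or failed in later tests; about a fifth of its hits are not listed in these tables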;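 note: calls also rest on retests at 20 µM and on dose response follow-up; controls were probe without protein and protein plus probe with vehicle; some compounds called inactive have numbers as strong as hits; many hits fall short of the cut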
Target sequence (P11940 whole entry, looked up): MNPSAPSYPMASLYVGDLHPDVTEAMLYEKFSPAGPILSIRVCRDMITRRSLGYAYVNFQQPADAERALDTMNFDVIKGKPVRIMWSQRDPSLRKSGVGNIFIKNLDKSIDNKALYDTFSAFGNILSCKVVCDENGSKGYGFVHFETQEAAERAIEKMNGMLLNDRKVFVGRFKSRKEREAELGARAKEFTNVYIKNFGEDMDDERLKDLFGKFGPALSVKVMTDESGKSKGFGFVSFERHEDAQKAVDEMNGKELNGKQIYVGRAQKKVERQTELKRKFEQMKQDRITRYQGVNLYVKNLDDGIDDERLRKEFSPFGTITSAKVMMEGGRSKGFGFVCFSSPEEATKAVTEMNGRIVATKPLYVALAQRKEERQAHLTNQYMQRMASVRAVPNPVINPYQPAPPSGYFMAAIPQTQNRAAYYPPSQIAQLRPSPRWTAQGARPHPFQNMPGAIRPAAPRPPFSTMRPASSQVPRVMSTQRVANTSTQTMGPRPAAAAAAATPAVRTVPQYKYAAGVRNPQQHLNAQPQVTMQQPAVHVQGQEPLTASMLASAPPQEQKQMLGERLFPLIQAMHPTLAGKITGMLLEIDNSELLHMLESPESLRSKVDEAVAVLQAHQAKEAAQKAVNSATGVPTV
Env fusion inh – inhibitors of HIV Env-mediated cell fusion. 1.1% of 360,000 active. AID 651610. HeLa-JRFL Env/CEM21 cell fusion, luciferase. inhibition, % at 12.3 µM;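 active = mean replicate inhibition score of at least 50 and every replicate individually at or above 50; inconclusive = only one of the two criteria met; inactive = mean below 50 and not all replicates reaching 50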;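 note: 0% = plate neutral controls and 100% = maraviroc near 300 nM; one replicate is shown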
eIF4H FP inh – inhibitors of RNA binding by human eIF4H; 0.94% of 290,000 active; Q15056; AID 2012; eIF4H fluorescence polarization binding assay; inhibition, % at 35 µM;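 active = 50% or more with normal probe brightness, or confirmed in later tests; inconclusive = above 50% with abnormal brightness, or retests that disagree; inactive = below 50% or failed in later tests; about a fifth of its hits are not listed in these tables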;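 note: calls also rest on retests at 20 µM and on dose response follow-up; 0% = protein and probe with vehicle and 100% = probe without protein; strong numbers were not always called active; many hits fall short of the cut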
Rce1 inhib – blocks yeast Ras-converting enzyme; 0.27% of 290,000 active; calls only; yeast membranes, quenched prenylated peptide cleavage fluorescence; Q03530; AID 2563;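 active = fall in fluorescence gain of 50% or more versus controls, with final raw signal at or below 3038400; inconclusive = same 50% fall but final raw signal above 3038400; inactive = fall in fluorescence gain under 50%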;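 note: plate controls were neutral control wells for no effect and wells lacking membranes for full effect; tested at 10 µM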
Target sequence (Q03530 whole entry, looked up): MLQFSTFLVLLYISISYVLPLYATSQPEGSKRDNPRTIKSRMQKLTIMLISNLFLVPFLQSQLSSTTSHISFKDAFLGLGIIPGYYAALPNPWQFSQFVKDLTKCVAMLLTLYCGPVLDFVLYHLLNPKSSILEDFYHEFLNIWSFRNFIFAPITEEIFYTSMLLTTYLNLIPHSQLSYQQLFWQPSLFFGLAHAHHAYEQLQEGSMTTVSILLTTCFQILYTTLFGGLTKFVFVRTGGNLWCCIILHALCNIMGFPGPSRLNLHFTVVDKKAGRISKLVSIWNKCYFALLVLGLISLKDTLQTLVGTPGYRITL
MT1-MMP act inh – blocks activation of human MT1-MMP. P50281. HT1080 RFP-PRO-GFP cells, GFP/RFP ratio fluorescence, overnight; percent of plate control window, DMSO zero. GFP/RFP ratio change, % at 20 µM. 0.061% of 360,000 active. AID 651647;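 active = GFP/RFP ratio change of at least 30% with cell ATP level not reduced by more than half and red fluorescence within 50% of control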; note: strong numbers were not always called active
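Read-out: GFP/RFP fluorescence ratio; Test system: RFP-PRO-GFP reporter HT1080 cells; Compound dosing: single-point 20 µM compound, 1% DMSO; Times: overnight compound exposure at 37 °C.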
eIF4H FP inh retest – further read-out of eIF4H FP inh, marked with its call; inhibition, %; compound at 20 µM; confirmation average;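 mean of two retest wells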
PABP FP inh retest – also measured in PABP FP inh; calls as there; inhibition, %; compound at 20 µM; confirmation repeats;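 mean of two retest wells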
MT1-MMP act inh RFP – also measured in MT1-MMP act inh; calls as there; RFP signal change, %; measured here: RFP expression control read;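 0 = vehicle wells; hits needed this value within 50% of zero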
An asterisk follows results filed as active; i = inactive; ? = inconclusive; · = not tested or not shown; & = joins results of further samples; [ ] = dose if it differs, or a comment.

SMILES	CSC inhib	Yeast UUG start	PABP FP inh	Env fusion inh	eIF4H FP inh	Rce1 inhib	MT1-MMP act inh	MT1-MMP act inh RFP	others
O=C(CN1C(=O)NC2(CCCCCCC2)C1=O)N1CCN(C(=O)c2ccco2)CC1	7	0	3	·	9	i	-1	-1
CCOc1ccccc1-n1nnnc1SCC(=O)NC(=O)NCc1ccco1	-4	-18	23*	-84	61*	i	-2	-1	eIF4H FP inh retest=64*;PABP FP inh retest=50*
CCN1C(=O)c2cccc3c(S(=O)(=O)NCCCN4CCOCC4)ccc1c23	33	-7	-9	-5	-15	i	6	2
CCN1CCN(c2nc3c(c(=O)n(C)c(=O)n3C)n2Cc2cccc3ccccc23)CC1	5	·	-11	·	-9	·	-13	-3
NCCc1nnc(SCc2ccccc2Cl)o1	-2	-3	-5	2	1	i	2	5
COCCNS(=O)(=O)c1ccc(OCC(=O)N2CCc3ccccc3C2)c(Cl)c1	-8	12	-1	7	3	i	2	-3
O=C(CCS(=O)(=O)c1ccccc1Cl)Nc1ccc(S(=O)(=O)Nc2ncccn2)cc1	4	-1	-3	-3	-15	i	4	5
COCCN(C(=O)COC(=O)CCC(=O)c1cccs1)c1c(N)n(Cc2ccccc2)c(=O)[nH]c1=O	·	·	·	-4	·	i	-3	0
O=C(c1ccc(S(=O)(=O)Nc2ccccc2F)cc1)N1CCC1	-5	-15	·	-11	·	i	-1	-3
N#Cc1ccc(C2=CC(=O)C[C@H](c3ccc(Cl)cc3)C2)cc1	64	-8	·	-10	·	·	1	1
COc1cc(OC)c(C(=O)O/N=C(\N)c2ccc(C)cc2)cc1OC	4	9	0	-13	-12	i	9	1
COc1ccc2oc(=O)c(C(=O)NCc3ccco3)cc2c1	0	-16	9	7	1	i	-6	-7
CCC(=O)N(Cc1cc2cc(C)c(C)cc2[nH]c1=O)C1CCCCC1	1	-15	-3	·	-3	i	-17	-15
COc1ccccc1NC(=O)Nc1nc(C(C)(C)C)cs1	27	·	-14	-26	1	i	-25	-27
Cc1ccc(CSCC(=O)N(C)CC(=O)Nc2ccc(Br)cc2C)cc1	6	-9	·	22	·	i	-1	-7

Of the compounds above, 5 contain four or more nitrogen atoms:
SMILES	CSC inhib	Yeast UUG start	PABP FP inh	Env fusion inh	eIF4H FP inh	Rce1 inhib	MT1-MMP act inh	MT1-MMP act inh RFP	others
O=C(CN1C(=O)NC2(CCCCCCC2)C1=O)N1CCN(C(=O)c2ccco2)CC1	7	0	3	·	9	i	-1	-1
CCOc1ccccc1-n1nnnc1SCC(=O)NC(=O)NCc1ccco1	-4	-18	23*	-84	61*	i	-2	-1	eIF4H FP inh retest=64*;PABP FP inh retest=50*
CCN1CCN(c2nc3c(c(=O)n(C)c(=O)n3C)n2Cc2cccc3ccccc23)CC1	5	·	-11	·	-9	·	-13	-3
O=C(CCS(=O)(=O)c1ccccc1Cl)Nc1ccc(S(=O)(=O)Nc2ncccn2)cc1	4	-1	-3	-3	-15	i	4	5
COCCN(C(=O)COC(=O)CCC(=O)c1cccs1)c1c(N)n(Cc2ccccc2)c(=O)[nH]c1=O	·	·	·	-4	·	i	-3	0

(further entries)
SMILES	CSC inhib	Yeast UUG start	PABP FP inh	Env fusion inh	eIF4H FP inh	Rce1 inhib	MT1-MMP act inh	MT1-MMP act inh RFP	others
O=C(CSc1ccc(Br)cc1)Nc1cccc(S(=O)(=O)N2CCOCC2)c1	·	-17	·	25	·	·	5	-1
CC1(C)CC(N2CCOCC2)=CC(=[N+]2CCOCC2)C1	-2	-4	-5	5	-5	i	-2	-2
COc1ccc(C(C)=O)c(OCC(=O)NCCC2=CCCCC2)c1	·	-1	·	17	·	·	-2	-9
N#Cc1c(-c2ccccc2)nc(-c2ccccc2)[nH]c1=O	26	-18	2	-42	-7	i	-1	-2
CC(C)=CCN1CCN(Cc2cc(C(C)C)n[nH]2)CC1CCO (configuration not stated)	2	0	-5	-18	4	i	3	7
COCCNc1nc(Oc2ccc(NC(C)=O)cc2)c2sc(-c3ccccc3)cc2n1	·	-8	·	-29	·	·	-7	-6
C[C@@H]1CCCCO[C@@H](CN(C)S(=O)(=O)c2ccc(Cl)cc2)[C@@H](C)CN([C@H](C)CO)C(=O)c2cc(N(C)C)ccc2O1	·	-9&19	·	1&-14[16.7 µM]	·	·	-2	4
COc1ccc2[nH]c(=O)c(C(c3nnnn3CC3CCCO3)N3CCCCC3)cc2c1 (configuration not stated)	·	·	7	13	1	i	-2	3
COc1cccc(C2N(c3cccc(Cl)c3)C(=O)C3CCCN32)c1OC (configuration not stated)	-18	-15	4	-14	-9	i	0	8
CCc1cc2c(=O)c(-c3ccc4c(c3)OCCO4)coc2cc1OS(C)(=O)=O	22	-5	13	-74	-8	i	-1	-9
Cc1cccc(C)c1Nc1nnc(SCC(=O)Nc2cc(S(=O)(=O)N3CCCCC3)ccc2Cl)s1	5	·	3	19	54	i	-4	0	eIF4H FP inh retest=1;PABP FP inh retest=-3
OCC1(Cc2cccc(C(F)(F)F)c2)CCN(Cc2cc(F)cc(F)c2)CC1	13	-11	-5	-3	-4	i	1	-2
Cc1ccc(C(c2sc3nc(C)nn3c2O)N2CCN(c3ccccc3F)CC2)cc1 (configuration not stated)	6	-4	3	-12	21	i	-6	-2
O=Cc1ccc(N2N=C(c3ccccc3)CC2c2ccccc2)cc1 (configuration not stated)	14	-21	-6	4	-2	i	-2	-5
O=C(Cn1cnc2ccccc2c1=O)NCC1COc2ccccc2O1 (configuration not stated)	-6	·	-2	·	-9	·	-1	2
COc1ccc(/C=C/C(=O)Nc2ccccc2Cl)cc1S(=O)(=O)N1CCOCC1	2	-13	1	25	-1	?	-3	0
c1cc2c(cc1CN1CCN(C3CCCCCC3)CC1)OCO2	29	8	5	-4	-2	i	5	8
CC(C)(C)Sc1ccc2nc3c(n2c1)CCCC3	25	-16	-7	-11	-6	i	3	1
COC(=O)C1=C(C)N(Cc2ccc(C)cc2)C(=O)/C1=C\c1cc(OC)c(OC)c(OC)c1	6	·	2	23	10	·	-14	-10
C[C@@H](NC(=O)[C@@H]1Cc2ccccc2CN1C(=O)OC(C)(C)C)C(=O)NCc1ccco1	-8	-6	2	1	-1	i	0	-1
CCc1ccc(OCc2nnc(SCc3ccc(C(=O)O)cc3)o2)cc1	-8	-10	-3	-12	4	i	8	2
COC(=O)c1c(NC(=O)/C=C/C(=O)O)sc(Cc2ccccc2)c1C	-16	-3	3	·	3	i	-22	-9
CN1/C(=C\C(=O)Nc2ccc(F)cc2)C(C)(C)c2ccccc21	33	·	20	-25	2	i	2	3
COc1ccc(NC(=O)COc2cccc3c2CCNC3=O)cc1	·	·	·	-8	·	i	1	2
C=CCNCCCCOc1ccc(C)cc1[N+](=O)[O-]	-8	-12	10	·	11	i	0	4
CCOC(=O)c1c(NC(=O)c2ccc(N3C(=O)C4C5C=CC(C5)C4C3=O)cc2)sc2c1CCCC2 (configuration not stated)	65	-10	6	-67	-5	i	4	-6
CC(=O)Nc1ccc(NC(=O)C(C)OC(=O)c2c(C)nn(-c3ccccc3)c2Cl)cc1 (configuration not stated)	·	2	·	-7	·	·	-7	1
Cc1ccccc1S(=O)(=O)NC(=NCc1ccc(F)cc1)c1ccccc1	-11	16	·	-4	·	·	2	0
COc1ccc(C(=O)NNC(=O)C(=O)N2CCCCC2)cc1OC	-1	-11	-4	-1	4	·	-2	4
CC1CN(C2CCN(C(=O)c3cccc(Cl)c3)CC2)CC(C)O1 (configuration not stated)	-8	-19	1	14	6	i	2	2
COc1cc(N=c2c([N+](=O)[O-])nn(-c3ccc4c(c3)OCCO4)n2O)cc(OC)c1	-7	·	-5	·	-4	i	-12	-14
COc1ccc2oc(=O)c(C(=O)Nc3ccccc3O)cc2c1	2	·	9	-135	2	i	1	-2
O=C(Nc1ncccc1Cl)c1cc2ccccc2o1	2	-11	·	-73	·	i	-2	-1
COc1ccc(NS(=O)(=O)c2ccc3[nH]c(=O)[nH]c3c2)cc1OC	9	-17	1	-9	-9	i	2	2
CC(=O)Nc1ccc(C(=S)NCc2ccco2)cc1	1	-21	15	-30	-10	i	0	-1
CCC(=O)c1c(NCCc2ccccc2)cc(C)oc1=O	8	·	8	19	-1	i	2	3
COc1ccc2nc(N3CCOCC3)cc(C)c2c1	-12	-35	-8	-120	-3	i	6	-6
CC(C)c1ccc(-c2nnc(N)s2)cc1	-20	-41	-4	-85	-3	i	-1	5
NC(=O)c1ccccc1OCc1nc2ccccc2s1	-3	-17	6	-67	4	i	1	3
O=C(Nc1nc2ccccc2n1CCOc1ccccc1)c1ccco1	·	-42	20	·	6	i	-1	-15
O=C(O)/C=C\C(=O)Nc1ccccc1C#Cc1ccccc1	2	-3	6	-38	-3	i	-20	-15
CC1CCN(C2CCN(S(=O)(=O)c3ccc(C(F)(F)F)cc3)CC2)CC1	72	-15	4	2	4	i	3	2
Cc1nn(-c2ccc(Cl)cc2)c2[nH]c(=O)c(CNCc3ccc4c(c3)OCO4)cc12	·	12	1	·	11	i	2	-2
Nc1cc(Cl)ccc1C(=O)OCC(=O)NC(=O)NCc1ccccc1	-2	-11	9	-12	-6	i	0	-1
CCSc1ncnc2c1sc1nc(-c3ccco3)c3c(c12)CC(C)(C)OC3	-1	·	2	·	19	i	·	·

Molecules listed so far that have two or more sulfur atoms:
SMILES	CSC inhib	Yeast UUG start	PABP FP inh	Env fusion inh	eIF4H FP inh	Rce1 inhib	MT1-MMP act inh	MT1-MMP act inh RFP	others
O=C(CCS(=O)(=O)c1ccccc1Cl)Nc1ccc(S(=O)(=O)Nc2ncccn2)cc1	4	-1	-3	-3	-15	i	4	5
O=C(CSc1ccc(Br)cc1)Nc1cccc(S(=O)(=O)N2CCOCC2)c1	·	-17	·	25	·	·	5	-1
Cc1cccc(C)c1Nc1nnc(SCC(=O)Nc2cc(S(=O)(=O)N3CCCCC3)ccc2Cl)s1	5	·	3	19	54	i	-4	0	eIF4H FP inh retest=1;PABP FP inh retest=-3
CCSc1ncnc2c1sc1nc(-c3ccco3)c3c(c12)CC(C)(C)OC3	-1	·	2	·	19	i	·	·

Going on with the list:
SMILES	CSC inhib	Yeast UUG start	PABP FP inh	Env fusion inh	eIF4H FP inh	Rce1 inhib	MT1-MMP act inh	MT1-MMP act inh RFP	others
COC(=O)C[C@H]1C[C@H]2c3cc(NS(=O)(=O)c4ccc(OC)cc4)ccc3O[C@H]2[C@H](CO)O1	·	-6	·	-20	·	·	1	2
CCCn1c(N)c(C(=O)CN(C)CC(=O)Nc2c(Cl)cccc2Cl)c(=O)[nH]c1=O	7	-2	·	-3	·	·	-8	-1
CCCSc1ccc2nc(NC(=O)OC)[nH]c2c1	47	-12	0	-33	-1	i	15	1
CS(=O)(=O)c1ccc2nc(NC(=O)CN3CCN(Cc4ccccc4)CC3)sc2c1	·	-7	-1	-25	6	i	-8	-8
Cc1ccc(S(=O)(=O)NC(=O)N2CCCC(C)(C)C2)cc1	-14	-5	-1	·	1	i	3	3
CCCCn1nnnc1C(CCSC)N1CCN(C/C=C/c2ccccc2)CC1 (configuration not stated)	·	-9	·	-10	·	·	0	-4

Rows are unselected. Share with any hit: about 3%.
